PrP UTR inh: inhibition of PrP 5' UTR reporter expression; 0.35% of 340,000 active; cell-based PrP 5' UTR mRNA reporter, plate reader; inhibition, % (test concentration not listed);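 active means every replicate at 50% or more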;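 further: 0 = median of the neutral control wells; tested in H4 reporter cells; numbers are from one replicate; inactives centre near -14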
Mtb hypoxia inh: inhibitors of hypoxia-regulated fluorescent reporter in Mycobacterium tuberculosis. M. tuberculosis hypoxia-regulated fluorescent reporter, fluorescence. fluorescence inhibition, % (concentration not given with the values). 0.1% of 300,000 active. AID 1159583;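 active means 35 to 45% if threefold the growth effect, above 45% if 1.5-fold the growth effect; inactive means the rest, general growth blockers included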;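 further: wells of about 50 µL received 100 nL stock; 0% = vehicle wells and 100% = reference inhibitor wells; whole bacteria with a GFP reporter of the hypoxia response; strong numbers were not always called active; many hits fall short of the cut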
BJeLR viability: BJeLR cell viability loss; inhibition, % (concentration not given with the values); BJeLR (HRASV12) viability, CellTiter-Glo ATP luminescence, 48 h; reference of the scale not given here; 0.17% of 300,000 active;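 active means replicate mean above 50%; inconclusive means above 50% but judged a plate artefact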;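 further: 50 nL library stock added to about 25 µL; numbers are from one replicate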
Bead autofluor: counter-screen for toxin protease inhibitors: compound fluorescence. fluorescence intensity (concentration not given with the values). 3.1% of 360,000 active. compound autofluorescence counterscreen, microsphere flow cytometry; active compounds read high;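 active means at least 3 SD above the mean of all compounds, about 16000 in these data; inconclusive means too few beads counted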;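 further: 100 nL of 1 mM stock went into each well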
ugtP null kill: compounds lethal to S. aureus RN4220 ugtP deletion mutant. growth inhibition, % (concentration not given with the values). 0.54% of 330,000 active. OD600 growth, 16 h; some inactives read as strong as hits;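 active means z-score under -3 and OD600 up to 0.15 on both plates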;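 further: plate controls were untreated wells for no effect and antibiotic for full effect; wells of about 80 µL received 100 nL stock; the first replicate is given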
RN4220 kill: S. aureus RN4220 growth inhibition; 0.33% of 330,000 active; OD600, 16 h; inhibition, % (concentration not given with the values);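 active means z-score of -3 or lower and OD600 up to 0.18 on both plates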;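 further: plate controls were untreated cells for no effect and reference antibiotic for full effect; stock transfer was 100 nL into about 80 µL; one replicate is shown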
Mtb hypoxia inh growth: recorded beside Mtb hypoxia inh, whose call it bears; growth inhibition, %; measured here: M. tuberculosis growth (absorbance);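 0% = vehicle and 100% = reference antibiotic; read after six days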
Starred values were filed as active, the others as inactive; ? = inconclusive; nt = no result given.

entry	SMILES	PrP UTR inh	Mtb hypoxia inh	Mtb hypoxia inh growth	BJeLR viability	Bead autofluor	ugtP null kill	RN4220 kill
1	CC(NC(=O)CN(c1ccc(Br)cc1)S(C)(=O)=O)c1ccccc1 (stereo unspecified)	-18.8	0.9	6.0	-2.7	2951	5.1	3.6
2	Cc1ccc(C)n1-c1ccc(N2CCOCC2)nc1	-10.7	-1.5	10.6	-5.7	22547*	-7.7	1.4
3	CCCSc1nc(N)cc(=O)[nH]1	-15.6	-12.2	-7.6	-10.3	6786	-7.1	-1.2
4	COC(=O)N1C(C)C=C[C@]1(Cc1ccccc1)C(=O)NCCCNc1ncc(C(F)(F)F)cc1Cl (stereo partly specified)	nt	-1.4	7.2	nt	nt	-35.2	-4.2
5	Cc1ccc(C(C(=O)NCc2ccco2)N(Cc2ccco2)C(=O)CNC(=O)c2ccco2)cc1 (stereo unspecified)	-14.2	-2.2	-6.1	-5.6	4222	-3.6	-5.5
6	CN(Cc1nc(-c2cnccn2)no1)C1CC(C)(C)NC(C)(C)C1	0.9	6.6	6.2	-1.3	4263	7.6	15.5
7	COc1ccc(CN2CN=C(Nc3nc4ccccc4s3)NC2)cc1	-6.8	-9.9	-5.3	nt	23311*	2.3	2.9
8	O=C(Nc1ccccc1)OCc1cc(-c2ccccc2Cl)on1	-50.1	1.5	8.9	4.6	3320	-24.1	-10.2
9	COc1ccc(NC(=O)N2CCCC(C(=O)NCCc3ccccc3)C2)cc1 (stereo unspecified)	-24.9	1.4	-5.8	-0.8	4581	3.9	1.4
10	COc1ccc(S(=O)(=O)N(CC(=O)NC2CCCC2)c2ccccc2OC)cc1	-16.6	3.0	2.9	-3.9	5605	1.3	1.3
11	O=C(NNc1c(Cl)cccc1Cl)c1c(F)cccc1Cl	-16.1	-6.8	13.9	-4.4	nt	0.5	0.7
12	CC(=O)NC1CC2CCCC(C1)N2CC(=O)NCc1ccc(F)cc1 (stereo unspecified)	-16.3	1.3	-0.6	1.6	6582	5.2	3.8
13	Cc1cccn2c(=O)cc(COC(=O)C(C)Oc3ccccc3)nc12 (stereo unspecified)	3.9	0.3	8.6	nt	7257	1.2	6.2
14	COc1ccc(N2CCCn3c2nc2c3c(=O)n(Cc3ccccc3F)c(=O)n2C)c(OC)c1	-15.2	7.0	7.3	-20.5	3687	-1.5	3.0
15	CC(C)(C)c1ccc(C(=O)OCCNC(=O)c2c(Cl)nc3ccccn23)cc1	-24.4	8.1	4.8	-8.8	4283	-5.9	8.3
16	CC(O)CNCCCCOc1ccc(OCc2ccccc2)cc1 (stereo unspecified)	-32.6	3.5	4.3	-3.3	4050	0.6	14.8
17	COc1cc(C)nc(N(C)S(=O)(=O)c2ccccc2Cl)n1	-14.8	nt	nt	-2.5	4755	0.4	3.6
18	O=C1OC(NC(=O)c2ccccc2)C(N2CCOCC2)=C1Cl (stereo unspecified)	-37.7	8.0	12.3	-0.8	21890*	-2.0	5.9
19	S=c1[nH]nc2ccccn12	-21.0	-5.8	0.6	nt	2912	-5.7	0.4
20	COc1ccc(NC(=O)CN(C)C(=O)c2cccc(S(=O)(=O)N3CCN(Cc4ccccc4)CC3)c2)cc1	-10.6	5.7	4.9	-9.9	4437	8.0	0.4
21	COc1ccc(/C=C2\SC(=S)N(Cc3cccnc3)C2=O)cc1C	-36.1	16.5	12.2	-4.4	2712	-24.1	-1.5
22	Cc1ccc(C)c(OCC(=O)Nc2nc3ccc([N+](=O)[O-])cc3s2)c1C	-6.2	-0.4	2.5	-3.9	22520*	-9.5	3.2
23	O=C(Cc1ccccc1)N/N=C/c1ccc2c(c1)OCO2	-82.0	nt	nt	-5.3	3448	nt	nt
24	COc1cccc(-n2c(SCC(=O)c3c[nH]c4ccccc34)nc3ccccc3c2=O)c1	-3.3	nt	nt	-20.0	2168	nt	nt
25	CC(C)OCCCNC(=O)c1ccc2c(c1)S(=O)(=O)c1ccccc1C2=O	-0.5	11.7	12.6	-4.7	5656	2.7	4.8
26	C[C@H](CO)N1C[C@H](C)[C@@H](CN(C)S(=O)(=O)c2ccccc2)Oc2ccc(NS(=O)(=O)c3cn(C)cn3)cc2C1=O	-12.2	4.9	-9.1	nt	3780	7.8	-0.2
27	CCOc1ccc(CCNC(=O)C2CSC3(C)CCC(=O)N23)cc1OCC (stereo unspecified)	-1.8	7.2	-6.5	3.0	4225	2.0	2.2
28	CCOC(=O)N1CCN(C(=O)c2cc3c(s2)-c2c(C)cccc2OC3)CC1	-10.6	2.9	-3.6	8.6	5020	-6.2	5.9
29	COc1cc(O)c(C(=O)O)c(CCc2ccccc2)c1	-3.5	-1.8	0.6	nt	3804	-4.4	5.4
30	COc1cc(COc2ccc3c(C)c(CC(=O)O)c(=O)oc3c2C)cc(OC)c1OC	-0.6	-10.7	-3.5	-5.7	4064	-3.7	1.2
31	O=[N+]([O-])c1ccccc1S(=O)(=O)Nc1ccc(S(=O)(=O)N2CCCC2)cc1	-8.9	1.9	3.4	nt	3745	2.7	10.1
32	Cc1ccc2nc3c(cc(C(=O)NC4CCS(=O)(=O)C4)n3Cc3ccccc3)c(=O)n2c1 (stereo unspecified)	-15.7	4.7	0.6	-5.7	5364	7.2	3.5
33	Cc1cccc(N=C2NC(=O)/C(=C3/C(=O)N(C)c4ccccc43)S2)c1C	-16.3	nt	nt	4.1	3165	4.3	-4.7
34	Cn1c(CNS(=O)(=O)c2ccc(Cl)cc2)cc(=O)n(C)c1=O	3.6	6.6	2.0	9.4	4644	7.6	4.0
35	CCc1nc(-n2[nH]c(=O)c3ccccc3c2=O)c2c3c(sc2n1)CCCC3	-17.3	-5.4	-1.5	-1.9	3947	-0.3	0.3
36	Cc1ccc(CCNC(=O)c2cccc(NC3=NC4CS(=O)(=O)CC4S3)c2)cc1 (stereo unspecified)	-8.8	6.5	3.8	-8.2	4497	0.9	-3.3
37	CCc1nnc(NC(=O)C2CCN(C(=O)c3ccco3)CC2)s1	-2.8	12.3	2.1	-4.5	5153	9.3	-5.0
38	CC(C)CC(CO)N1CCN(Cc2ccc([N+](=O)[O-])cc2)CCC1=O (stereo unspecified)	nt	2.7	6.3	nt	nt	0.4	2.2
39	COc1ccccc1OCCNC(=O)CN(c1cccc(C)c1)S(=O)(=O)c1ccccc1	-3.7	4.1	9.3	-4.6	6005	-1.1	-0.2
40	O=C(O)c1cccn1Cc1ccccc1F	-24.4	5.1	6.8	4.2	10940	0.9	2.6
41	CN(C)C1=NCC(Cc2ccccc2)N1CCc1ccc(F)cc1 (stereo unspecified)	nt	22.3	9.1	nt	nt	3.6	1.7
42	Cc1ccnc(SCC(=O)Nc2oc(-c3ccccc3)c(-c3ccccc3)c2C#N)n1	-2.0	nt	nt	4.2	3792	-2.3	-0.7
43	COc1cccc(C=Nc2ccccc2C(=O)Nc2ccccc2)c1O	-42.3	-3.9	3.2	-5.6	2385	-0.8	-4.7
44	O=C(CCCCCNC(=O)c1ccccc1)NN=Cc1ccccc1O	nt	3.8	7.1	nt	nt	-2.6	-1.0
45	CO/N=C(\N)c1nonc1N	-20.6	8.2	10.9	4.0	4103	11.3	3.6
46	Cc1cc(Cl)ccc1OCC(=O)N/N=C/c1ccncc1	1.0	nt	nt	1.2	3829	nt	nt
47	O=C(C1=C[C@@H](c2ccccc2)C[C@@H](OCc2ccc(CO)cc2)O1)N1CCN(Cc2ccc3c(c2)OCO3)CC1	0.8	nt	nt	-1.1	3826	nt	nt
48	CC(C=NO)Cc1ccc2c(c1)OCO2 (stereo unspecified)	nt	9.5	2.3	nt	nt	10.0	4.1
49	CC(=O)c1ccc(-n2nnnc2SCC(=O)Nc2sc(C)c(C)c2C#N)cc1	-17.7	-5.3	-13.4	3.3	2236	-5.0	-0.3
50	CCCS(=O)(=O)N1CCN(C(=O)c2cc(OC)cc(OC)c2)CC1	0.7	7.4	1.4	-2.2	7902	3.9	5.2
51	COc1ccc(Cc2nnc(SCC(=O)NC3CCCCC3)n2C)cc1	-28.7	7.2	3.3	2.8	9071	4.8	4.9
52	COc1ccc(Cl)cc1NC(=O)C(=O)N/N=C/c1cc(C)n(-c2ccc(C)cc2)c1C	-12.6	nt	nt	9.0	11090	nt	nt
53	O=C(Nc1cc(S(=O)(=O)N2CCOCC2)ccc1N1CCOCC1)c1ccccc1[N+](=O)[O-]	-11.0	-17.7	-7.2	nt	2753	0.1	1.8
54	CCOC(=O)Nc1sc(NS(=O)(=O)c2ccc(C)cc2)nc1C	-23.2	2.6	-3.4	-0.9	9107	0.4	-0.3
55	COC(=O)c1ccc(NC(=O)CSc2nnc(C3CC3)n2C)cc1	-12.9	5.6	11.1	-8.8	5471	-0.9	-1.7
56	Cc1ccc(S(=O)(=O)N2CCN(C(=O)COC(=O)Cc3ccc(F)cc3)CC2)c(C)c1	-8.2	-0.1	-1.5	nt	nt	3.9	5.4
57	CCOc1ccc(N2C(=O)CC(NCCc3ccc(S(N)(=O)=O)cc3)C2=O)cc1 (stereo unspecified)	-10.9	19.5	10.8	-4.8	3055	-6.2	-15.4
58	CCNC(=O)/C(=C/c1ccco1)NC(=O)/C=C/c1ccccc1	4.1	1.6	0.9	-6.4	3331	7.4	4.7
59	CC(CCc1ccccc1)NC(=O)C1CCCN(C(=O)c2cc3sccc3n2C)C1 (stereo unspecified)	-2.1	-9.4	-11.9	1.2	9172	-3.8	3.7
60	COc1ccc(/C(C)=N/NC(=O)CNC(=O)c2cccnc2)cc1	-17.9	nt	nt	0.2	3607	nt	nt

Four compounds from above, limited to PrP UTR inh, ugtP null kill and Mtb hypoxia inh.
no.	structure	PrP UTR inh	ugtP null kill	Mtb hypoxia inh
56	Cc1ccc(S(=O)(=O)N2CCN(C(=O)COC(=O)Cc3ccc(F)cc3)CC2)c(C)c1	-8.2	3.9	-0.1
57	CCOc1ccc(N2C(=O)CC(NCCc3ccc(S(N)(=O)=O)cc3)C2=O)cc1 (stereo unspecified)	-10.9	-6.2	19.5
54	CCOC(=O)Nc1sc(NS(=O)(=O)c2ccc(C)cc2)nc1C	-23.2	0.4	2.6
49	CC(=O)c1ccc(-n2nnnc2SCC(=O)Nc2sc(C)c(C)c2C#N)cc1	-17.7	-5.0	-5.3

Continuation:
entry	SMILES	PrP UTR inh	Mtb hypoxia inh	Mtb hypoxia inh growth	BJeLR viability	Bead autofluor	ugtP null kill	RN4220 kill
61	COCc1cc(C)n(CC(=O)Nc2c(C)cccc2C)c(=O)c1C#N	-4.8	14.4	7.4	-1.0	2525	4.5	3.7
62	COc1ccc(CCN2CC(C(=O)NCCc3ccccn3)CCC2=O)cc1 (stereo unspecified)	-0.2	9.7	-14.1	1.2	nt	5.1	0.4
63	CN(C)C(=O)c1ccc(NC(=O)CN2C(=O)NC3(CCCc4ccccc43)C2=O)cc1 (stereo unspecified)	6.9	0.4	2.9	0.0	?	2.1	4.1
64	COc1ccc(OC)c(C(=O)N/N=C/c2ccccn2)c1	-25.3	nt	nt	-2.8	4256	nt	nt
65	C#CCOc1c(Cl)cc(/C=N/NC(N)=S)cc1OCC	-9.2	nt	nt	13.3	6894	nt	nt
66	CCOC(=O)[C@@H]1[C@H]2COc3cc(OC)ccc3[C@@H]2N2C(=O)N(c3ccc(C(F)(F)F)cc3)C(=O)[C@@]12C	-6.8	nt	nt	1.8	4639	nt	nt

Screens as filed in PubChem.
